Screening data (PubChem BioAssay)
HPGD block = HPGD (human) dehydrogenase inhibition; Potency, µM, inactives show top-dose activity change, negative = inhibition, most hits filed as inhibitors; P15428; actives 4.3% (n = 150,000); purified HPGD, NADH fluorescence kinetic, PGE2 substrate; active = well fitted inhibition curve with a large enough effect (not every such curve was filed as active); inconclusive = small, poorly fitted or top-dose-only effect, or another doubt; inactive = no such curve, though single readings can be large or run the other way;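 note: top concentration of the series not given in the record; plate controls included wells without enzyme; inactives centre near -10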
Target sequence (P15428 whole entry, looked up): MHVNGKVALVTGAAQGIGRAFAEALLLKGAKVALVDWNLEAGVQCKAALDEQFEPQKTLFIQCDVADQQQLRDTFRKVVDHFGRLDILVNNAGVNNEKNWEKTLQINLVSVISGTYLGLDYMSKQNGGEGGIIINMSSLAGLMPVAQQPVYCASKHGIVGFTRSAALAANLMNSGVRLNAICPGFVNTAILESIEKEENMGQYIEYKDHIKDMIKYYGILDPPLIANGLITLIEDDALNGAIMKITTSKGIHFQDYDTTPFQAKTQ
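NADH formation kinetics: reaction with 30 uM PGE2 and 1 mM NAD+ (final), 20 nM enzyme, Tris-HCl pH 8 with Tween 20, after 15 min compound preincubation at room temperature. Fluorescence change, last versus first of five reads.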
Numbers without * were called inactive; ? = inconclusive; & = joins results of further samples. % is set by controls: 0 for no effect and ±100 for the full control effect; potency is the fitted concentration of half-maximal effect. Some of the compounds tested; the hit share may differ from the screen's.

SMILES	HPGD block
CCOC(=O)c1c(NC(=O)CC2SC(N)=NC2=O)sc2c1CCCC2 (stereo unspecified)	-8.2%
CCOC(=O)Cn1cc(-c2ccccc2)nn1	-6.4%
CCCC(=O)Nc1sc(C)c(-c2ccc(OC)cc2)c1C#N	-9.0%
Cc1ccnc(N/C=C(/NC(=O)c2ccccc2)C(=O)N/N=C\c2ccc(F)cc2)n1	-7.8%
CCCCNN	1.6%
COc1ccc(C(=O)N(O)c2ccccc2)cc1	?
CC(C)C1Cc2c(C#N)c(N)n(C)c(=S)c2CO1 (stereo unspecified)	-14.1%
O=C(Cn1nnc(-c2ccncc2)n1)N(C1CCCCC1)C1CCCCC1	-10.1%
CCOC(=O)Cn1nc(/C=C/c2ccc(C(C)C)cc2)ccc1=O	?
O=C1C(Cl)=C(N2CCOCC2)C(=O)N1c1ccccc1Cl	-8.5%
CCOc1ccc(Br)cc1S(=O)(=O)Nc1cccc(S(=O)(=O)N(C)c2ccccc2)c1	-5.6%
CCn1c(SCC(=O)N/N=C/c2ccc(C)o2)nnc1-c1ccc(C)cc1	-17.5%
CCOC(=O)/C(C#N)=C1/SC(CC)C(=O)N1c1ccc(Br)cc1 (stereo unspecified)	-13.7%
CCN(CC)c1ccc(/C=N/N2C(=O)c3ccccc3C2=O)c(O)c1	-10.2%
COc1ccc2[nH]cc(CC(N)C(=O)O)c2c1 (stereo unspecified)	-3.1%
O=C(Nc1cccc(Cl)c1)c1ccc(F)c(S(=O)(=O)N2CCN(c3ccccn3)CC2)c1	?
Cc1cc(C)cc(NC(=S)Nc2ccc3cn[nH]c3c2)c1	-9.5%
COc1ccc(-c2nc3ccccc3c(=O)n2CCOc2c(C)cccc2C)cc1	?
Cc1cc([N+](=O)[O-])ccc1NC(=S)NC(=O)Cc1ccccc1	17.8µM*
CCOC(=O)CCc1c(C)c2ccc(OCC(=O)OC(C)C)cc2oc1=O	?
CCOC(=O)C1CCN(c2ncnc3c2[nH]c2cccc(OC)c23)CC1	?
COc1ccc(C(=O)Nc2nc(N)n(-c3ccccc3)n2)cc1	-16.5%
O=C(CSc1nnc(-c2ccccc2)c(-c2ccccc2)n1)N1CCOCC1	-28.4%
CCC(C)Sc1cc(C)c(C#N)c2nc3ccccc3n12 (stereo unspecified)	-18.2%
O=C1C(N2CCOCC2)=C(n2nnc3ccccc32)C(=O)c2ccccc21	?
Cn1c(SCC(=O)Nc2sccc2C#N)nnc1-c1ccccc1	-2.7%
CC(=O)c1ccc(Oc2cc(C)nc(-n3nc(C)cc3C)n2)cc1	-5.1%
CC(C)CC(NC(=O)C1CCC(C)CC1)C(=O)NCc1ccccn1 (stereo unspecified)	-9.8%
COc1ccc(NS(=O)(=O)c2cc(OCC(N)=O)c(C)cc2Cl)cc1	-11.6%
Cn1c(=O)c2c3c(sc2n2cnnc12)CCC3	-12.4%

Fetched by compound from above:
SMILES	HPGD block
O=C(CSc1nnc(-c2ccccc2)c(-c2ccccc2)n1)N1CCOCC1	-28.4%
COc1ccc(NS(=O)(=O)c2cc(OCC(N)=O)c(C)cc2Cl)cc1	-11.6%
CCC(C)Sc1cc(C)c(C#N)c2nc3ccccc3n12 (stereo unspecified)	-18.2%
Cn1c(SCC(=O)Nc2sccc2C#N)nnc1-c1ccccc1	-2.7%
O=C1C(N2CCOCC2)=C(n2nnc3ccccc32)C(=O)c2ccccc21	?
CC(C)CC(NC(=O)C1CCC(C)CC1)C(=O)NCc1ccccn1 (stereo unspecified)	-9.8%
CC(=O)c1ccc(Oc2cc(C)nc(-n3nc(C)cc3C)n2)cc1	-5.1%

Following part.
SMILES	HPGD block
O=c1ccc(/C=C/c2ccccc2)nn1Cc1ccccc1	?
C[C@@]12CCC(=O)C=C1C=CC1C2CC[C@]2(C)C1CC[C@@]21CCC(=O)O1 (stereo partly specified)	-0.5%
COc1cccc(-n2c(SCC(=O)NC3CCCCC3)nc3n[nH]c(C)c3c2=N)c1	15.8µM*
CCCOC(=O)c1ccc(NC(=O)c2cn(CC)c3nc(C)ccc3c2=O)cc1	-0.5%
CCOc1ccc(N(CC(=O)NCCSc2ccccn2)S(C)(=O)=O)cc1	-6.0%
CCN1CCc2c(sc(N)c2C(N)=O)C1	?
COc1cc(C(=O)NC2=NCCS2)ccc1OCc1c(C)noc1C	-4.6%
Cc1cc(C)c2c(N)c(C(=O)NC3CC3)sc2n1	-28.0%
COc1ccc(-n2cnc3sc(-c4ccccc4)cc3c2=O)cc1	-25.6%
CCC1=NN(C(=O)CCc2ccccc2O)C(O)(C(F)(F)F)C1 (stereo unspecified)	-4.2%
Cc1cc(/C=N/NC(=O)c2cccc([N+](=O)[O-])c2)c(C)n1-c1ccc(Cl)cc1Cl	-19.8%
NC[C@@H](O)c1ccc(O)c(O)c1	?
COc1ccc(CNC(=O)C2CCCN(S(=O)(=O)c3cnc[nH]3)C2)cc1 (stereo unspecified)	-10.6%
Cc1ccc(C(c2nnnn2Cc2cccs2)N2CCN(C(=O)c3ccco3)CC2)cc1 (stereo unspecified)	9.9%
COC(=O)c1[nH]c2ccc(C)cc2c1NC(=O)CN1CCC(C)CC1	?
Fc1ccccc1CNc1ccc(Cl)c(Cl)c1	-11.5%
S=C1NCCc2ccc(Cl)cc2C1c1ccccc1Cl (stereo unspecified)	-5.4%
COc1cc(/C=C/C(=O)OCC(=O)Nc2cc(S(=O)(=O)N3CCCCC3)ccc2C)ccc1O	?
S=c1[nH]nc(COc2ccc(Cl)cc2)o1	?
O=C(Cc1ccc(S(=O)(=O)N2CCCC2)s1)Nc1nc2c(s1)CCCC2	-22.4%

Reprinted from the part before: five entries, followed by the next part.
SMILES	HPGD block
Fc1ccccc1CNc1ccc(Cl)c(Cl)c1	-11.5%
S=C1NCCc2ccc(Cl)cc2C1c1ccccc1Cl (stereo unspecified)	-5.4%
COc1cc(/C=C/C(=O)OCC(=O)Nc2cc(S(=O)(=O)N3CCCCC3)ccc2C)ccc1O	?
S=c1[nH]nc(COc2ccc(Cl)cc2)o1	?
O=C(Cc1ccc(S(=O)(=O)N2CCCC2)s1)Nc1nc2c(s1)CCCC2	-22.4%
CCN1C(=O)C(O)(C2COC(C)(C)CC2=O)c2ccccc21 (stereo unspecified)	-6.1%
CC(C)CCCC(C)C1CCC2C3CC=C4CC(O)CC[C@@]4(C)C3CC[C@@]12C (stereo partly specified)	-18.9%
Nn1c(SCC(=O)Nc2ccc3c(c2)OCCO3)nnc1-c1ccccn1	-3.2%
COc1ccc(NC(=O)CSc2nnc(-c3ccoc3C)n2CC2CCCO2)cc1 (stereo unspecified)	-16.6%
NC(N)=N/N=C/c1c(Cl)cccc1Cl	-6.2%&-8.7%
Cc1oc(-c2ccc(F)cc2)cc1-c1nn2c(-c3ccoc3C)nnc2s1	-18.3%
O=C1c2ccccc2S(=O)(=O)N1CCOc1ccc(F)cc1	?
N#Cc1c(NC(=O)C(F)(F)F)sc2c3c(=O)c4ccccc4c(=O)c=3oc3ccccc3c12	-17.5%
Cc1ccc(C)c(S(=O)(=O)NCc2ccc(C(=O)N3CCCCC3C)cc2)c1 (stereo unspecified)	?
CCCCOc1ccc(C(=O)OCC(=O)Nc2cc(C)c(C)cc2[N+](=O)[O-])cc1	-13.8%
COc1ccc(S(=O)(=O)/N=C2/C=CC(=O)C(C)=C2C)cc1	?
CCN(C(=O)CN(C)Cc1c(F)cccc1Cl)c1c(N)n(Cc2ccccc2)c(=O)[nH]c1=O	-5.7%
Oc1[nH]c2c(Cl)cc(Cl)cc2c1N=NC(=S)NCC1CCCO1 (stereo unspecified)	-10.2%
Cc1cccc(CCNC(=O)C2CCC(CNc3c(N4CCCC4)c(=O)c3=O)CC2)c1 (stereo unspecified)	12.6µM*
O=C(CNc1cccc2ccccc12)N/N=C/c1ccc(OC(=O)/C=C/c2ccco2)cc1	-4.8%
COCC(=O)N1CCC2(CCCN(Cc3ccccc3)C2)CC1	0.2%
CN(C)C(=O)CCc1nc2sc3c(c2c(=O)[nH]1)CCCC3	-5.7%
O=C(Nc1ccc(C2CCCCC2)cc1)C1CCCN(c2ncccn2)C1 (stereo unspecified)	-9.6%
CC(=O)Nc1ccc(NC(=O)CSc2nc3ccccc3o2)cc1	-16.8%
O=C(Nc1ccc2oc(-c3ccccc3Cl)nc2c1)c1ncn[nH]1	?
Cc1cc(C)c(-c2csc(NC(=O)/C=C/c3cccs3)n2)c(C)c1	-21.8%
Cc1cc(NC(=O)Cn2nnc3sc4c(c3c2=O)CCCC4)no1	-8.2%
Cc1cc(NC(=O)Nc2ccc(F)cc2)no1	-13.5%
O=C(c1ccccc1)c1cccn1CC(=O)N1CCN(c2ccc(F)cc2)CC1	3.9%
CCOC(=O)N1CCN(C(=O)Cn2cc3c(n2)CCCC3)CC1	2.7%
COC(=O)c1cc(C)sc1NC(=O)CCCC(=O)O	-12.8%
COc1cc(NC(=O)c2ccc(C)cc2)c(OC)cc1NC(=O)CN1CCOCC1	-1.2%
CCC(OC(=O)CCc1nc2ccccc2[nH]c1=O)C(=O)c1ccccc1 (stereo unspecified)	-29.6%
COc1ccc(CCNC(=O)CSc2nnc(NC(C)=O)s2)cc1OC	-12.5%
O=C(c1ccc(COc2ccccc2Cl)o1)N1CCCC1	-24.1%
CC(C)Nc1oc(Cc2cccc3ccccc23)nc1C#N	-15.7%
COCCCN1C(=O)c2ccc(C(=O)O)cc2C1=O	-2.8%
COc1ccc2c(c1)OC/C(=C\c1ccc(OC)c(O)c1)C2=O	11.2µM*
COc1ccc(OC)c(/C=N/NC(=O)c2cc(-c3ccc(C)o3)nc3ccccc23)c1	?
CC(=O)Nc1ccc(NC(=O)Cn2cc3c(n2)CCC(C)C3)cc1 (stereo unspecified)	-18.2%
CC(=O)N1CCc2cc(S(=O)(=O)NC(C(=O)Nc3ccc4c(c3)OCCO4)C(C)C)ccc21 (stereo unspecified)	-16.7%
CC(C(=O)Nc1c2c(cc3c1CCC3)CCC2)N1CCCC1 (stereo unspecified)	-3.7%
COc1ccc(NC(=O)c2cnc(C)cn2)cc1-n1cnnn1	-10.5%
CCCCN1CN(Cc2ccco2)CNC1=S	-0.8%
COC(C(=O)NC(C(C)C)C(C)C)c1ccccc1 (stereo unspecified)	-0.1%
CCCCc1c(O)nc(SCC(=O)N2CCOCC2)n(-c2ccccc2C)c1=O	-1.4%
Cc1cc(C(C)(C)C)c(O)c(C)c1CC1=NCCN1	-4.8%&-4.1%&-5.3%&-0.1%&6.9%
O=C(COC(=O)c1ncc(Cl)c(Cl)c1Cl)c1ccc(Cl)s1	?
CN(C(=O)C1CCCO1)c1nnc(-c2ccccn2)s1 (stereo unspecified)	-1.1%
COc1ccc(C2C(C#N)=C(N)SC(N)=C2C#N)cc1OC	15.8µM*
Cc1nc(SCC(=O)OCc2ccccc2)c(C#N)c(-c2ccccc2)c1C(=O)Nc1ccccc1	-14.0%
CCCn1c(=N)n(CC(=O)c2cccs2)c2ccccc21	-8.2%
COc1ccc(CN2CC(C(=O)NCCCN3CCN(C)CC3)CC2=O)cc1 (stereo unspecified)	-7.2%
COC(=O)N1CCC2(CC1)CCN(C(c1ccccc1)c1ccccc1)CC2	-1.4%
COc1ccc(-c2nc3ccccc3c(=O)n2NC(=O)Cc2ccccc2)cc1	-1.5%
(listing goes on)
SMILES	HPGD block
CCOC(=O)c1cc2c(=O)n3ccccc3nc2n(CCCOC)c1=NC(=O)C(C)(C)C	?
COc1ccc(/C(N)=N/OC(=O)c2cccc([N+](=O)[O-])c2C)cc1OC	-11.7%
COc1cc2oc3ccccc3c2cc1N(CC(=O)N(C)C)S(=O)(=O)c1ccccc1	-1.1%
CCOC(=O)c1c(C)n(C)c2ccc(OC(=O)c3ccc([N+](=O)[O-])cc3)cc12	-16.1%
COCCCNC(=O)c1cc(OC)c(OC)c(OC)c1	-1.4%
CCCCn1nc2cc(C(=O)NCc3ccc(OC)cc3)ccc2c1OCC	?
Cc1oc2nc(SCC(=O)Nc3ccc(S(N)(=O)=O)cc3)nc(NC(=O)c3ccccc3)c2c1C	?
Cn1c(=O)[nH]c(=O)c2c1nc(N1CCN(Cc3ccccc3)CC1)n2CCSc1ncccn1	-6.9%
CC1CCCN(c2ccc([N+](=O)[O-])cc2C(=O)c2ccccc2)C1 (stereo unspecified)	-11.3%
Cc1cccn2c(=O)c(/C=C(\C#N)S(=O)(=O)c3ccc(Cl)cc3)c(N3CCC(C(N)=O)CC3)nc12	15.8µM*
Cc1c(C)c2cc(Cl)c(O)c(CN3CCCC(C)C3)c2oc1=O (stereo unspecified)	?
Cc1occc1C(=O)NCCc1cccc(Cl)c1	-26.8%
O=C(O)c1cc(N=Cc2ccccc2O)cc(C(=O)O)c1	-23.9%
Cc1cccc(-c2noc(-c3cc4ccccc4oc3=O)n2)c1	?
C=CCn1c(SCC(=O)Nc2sccc2C(N)=O)nc2ccc(Cl)cc2c1=O	-19.5%
COC(=O)COc1nsnc1N1CCOCC1	-0.2%
O=C(/C=C/c1ccccc1)N/C(=C/c1ccccc1)C(=O)N1CCOCC1	-20.4%
c1csc(-c2cn3c(n2)SCC3)c1	-16.6%
CCCCOc1ccc(S(=O)(=O)NNC(=O)c2cc3ccccc3o2)cc1	-29.2%
O=C(CCCC(=O)N(c1ccc2c(c1)OCCO2)C(C(=O)NC1CCCCC1)c1ccc(Cl)cc1)Nc1ccccn1 (stereo unspecified)	-6.6%
CCCCCCOC(=O)c1ccc(NC(=O)c2cc(OC)c(OC)c(OC)c2Br)cc1	-25.3%
O=C(Nc1nnc(SCc2ccc(F)cc2)s1)c1ccco1	-13.2%
Cc1ccc2nc(SCC(=O)Nc3nnc(SCC(N)=O)s3)[nH]c2c1	-5.3%
CN(C)CCNC(=O)Cc1c(C(=O)O)n(C)c2ccccc12	-22.5%
O=C(CSc1ccc2nnc(-c3cccc(F)c3)n2n1)N1CCCc2ccccc21	-26.1%
Nc1ccc(C(=O)n2c3ccccc3c3ccccc32)cc1	31.6µM*
CCCCC1=CC2=C(c3ccco3)C(=O)C(C)(OC(=O)c3ccc(OC)cc3)C(=O)C2=CN1CC(C)C (stereo unspecified)	-12.2%
